# T cruzi repl – T. cruzi replication inhibition; T. cruzi beta-gal in NIH3T3, luminescence, 90 h; inhibition, % (test concentration not listed); 1.4% of 300,000 active; AID 1885;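 active = mean inhibition across valid replicates above about 55%, limit read from the data; inconclusive = mean below that limit but half or more replicates reach it; inactive = mean below it, under half of replicates reach it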;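 note: signal also drops with host cell toxicity which is not excluded here; 0% = plate median of DMSO wells and 100% = zero luminescence signal; higher percent means less beta-gal luminescence so fewer parasites; stock transfer was 50 nL into about 50 µL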
# Bfl-1 A1 inh – inhibitors of the anti-apoptotic protein A1, read as caspase activation. MEF A1-2A-BIM cells, Caspase-Glo 3/7 luminescence, 3 h; percent of clofoctol response, vehicle zero. caspase activation, % (no concentration beside the values). 0.066% of 330,000 active;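 active = over half of replicate activation scores above 10%, or exactly half above 10 with the replicate mean above 10; inconclusive = replicate mean below 10 yet half the replicates above 10; inactive = over half of replicates below 10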;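 note: wells of about 30 µL received 50 nL stock; many hits fall short of the cut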
# ALR inh – human ALR oxidase inhibition via reduced H2O2. P55789. purified ALR, DTT oxidation, H2O2 HRP-luminol luminescence. inhibition, % (no concentration beside the values). 3.8% of 290,000 active;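 active = mean and each replicate at 75% or more; inconclusive = only one of the two met; inactive = neither met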;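 note: stock transfer was 7.5 nL into about 7.5 µL; 0% = neutral wells and 100% = wells with inactivated enzyme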
# Target sequence (P55789 whole entry, looked up): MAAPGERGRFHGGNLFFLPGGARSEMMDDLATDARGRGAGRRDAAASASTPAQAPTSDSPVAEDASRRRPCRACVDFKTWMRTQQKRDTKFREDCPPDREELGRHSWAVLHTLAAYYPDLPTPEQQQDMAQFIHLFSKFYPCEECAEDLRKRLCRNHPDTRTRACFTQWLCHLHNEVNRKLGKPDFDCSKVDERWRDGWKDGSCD
# Beta2AR agonist – activates human beta-2 adrenergic receptor causing internalization; P07550; Am2.2-beta2AR cells, FAP receptor internalization, flow cytometry; reference of the scale not given here; response, % (concentration not given with the values); 0.43% of 340,000 active;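 active = response above a set limit, near 3 SD of response in nonfluorescent compounds, cut at about 42% in these data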;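 note: stock transfer was 100 nL into about 11 µL; a reference agonist was the positive control; negative values mostly stem from fluorescent compounds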
# Target sequence (P07550 whole entry, looked up): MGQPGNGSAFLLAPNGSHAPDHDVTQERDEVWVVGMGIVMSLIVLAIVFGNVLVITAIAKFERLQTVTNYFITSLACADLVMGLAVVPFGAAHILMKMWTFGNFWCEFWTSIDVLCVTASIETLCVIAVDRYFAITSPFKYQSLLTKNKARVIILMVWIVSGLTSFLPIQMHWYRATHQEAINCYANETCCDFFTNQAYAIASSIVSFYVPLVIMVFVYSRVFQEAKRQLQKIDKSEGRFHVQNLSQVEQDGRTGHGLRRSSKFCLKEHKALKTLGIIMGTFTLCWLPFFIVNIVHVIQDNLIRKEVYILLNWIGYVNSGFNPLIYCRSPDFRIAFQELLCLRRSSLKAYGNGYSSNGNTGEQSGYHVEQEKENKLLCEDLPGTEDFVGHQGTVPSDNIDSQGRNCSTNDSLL
# Beta cell apopt – blocks beta cell apoptosis. protection from apoptosis, % (test concentration not listed). 0.8% of 300,000 active. INS-1E cytokine-induced death, ATP luminescence, 48 h; percent of positive-control rescue, neutral wells zero;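 active = all replicates at 75% or more, or half of them and the mean; inconclusive = half reach 75% but not the mean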;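 note: 0% = cytokine-treated negative control wells and 100% = positive control rescue; higher means more ATP so stronger rescue from cytokine killing; wells of about 40 µL received 100 nL stock; the first replicate is given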
# LANA-H2B inh – blocks KSHV LANA binding to histone H2A/H2B. cell-free LANA-H2A/H2B peptide, fluorescence polarization. Q9QR71. AID 2629. 0.6% of 320,000 active. inhibition, % (test concentration not listed); in the data active = inhibition mostly above about 10%, no sharp cut-off; inactive = mostly below about 6.7%;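 note: stock transfer was 7.5 nL into about 10 µL; 0% = median of vehicle wells and 100% = median of positive control wells; one replicate is shown; the record names a cut of 25% in any replicate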
# rRNA inh HTS – selective bacterial rRNA inhibition in E. coli. GFP signal change (wild-type ribosome), % (no concentration beside the values). 1.6% of 350,000 active. AID 720706. E. coli WT GFP vs humanized-ribosome RFP mutants, fluorescence, 24 h; hits give low values; DMSO median 0, no signal -100;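 active = significant combined selectivity score with lowered wild-type GFP, culture density cut under 30%, mutant RFP and density less affected; inactive = any of these conditions unmet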; note: one replicate is shown; some compounds called inactive have numbers as strong as hits
# Calb FLC – affects C. albicans growth with fluconazole; growth inhibition, % (test concentration not listed); C. albicans CaCi-2 (fluconazole-resistant clinical isolate) + fluconazole, Alamar Blue growth, 48 h; 0.57% of 300,000 active;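 active = most replicates above 75%; inconclusive = exactly half above 75%; inactive = most below 75%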;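 note: all wells also contain fluconazole at 8 µg/ml as a sub-toxic cotreatment; 0% = median of DMSO wells and 100% = median of geldanamycin control wells; wells of about 8 µL received 7.5 nL stock; the first replicate is given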
# rRNA inh HTS OD600 – recorded beside rRNA inh HTS, whose call it bears; OD600 change, %; measured here: OD600 growth;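 optical density of the mix in the first replicate; 0 = DMSO median and -100 = no signal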
# rRNA inh HTS RFP – further read-out of rRNA inh HTS, marked with its call; RFP signal change, %; measured here: RFP humanized mutant strains;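 first replicate; 0 = DMSO median and -100 = no signal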
# An asterisk follows results filed as active; ? = inconclusive; nt = no result given. These rows are one share of the data, so the mix of outcomes need not match the whole.
SMILES,T cruzi repl,Bfl-1 A1 inh,ALR inh,Beta2AR agonist,Beta cell apopt,LANA-H2B inh,rRNA inh HTS,rRNA inh HTS OD600,rRNA inh HTS RFP,Calb FLC
COc1cccc(NC(=O)COC(=O)c2ccccc2F)c1,-4,-0.5,-6,-1,-11,-0.2,-1,13,2.6,-30
NCCNc1ccc([N+](=O)[O-])cc1,-14,0.4,nt,0,-1,-6.9,-19,-20,-11,-2
Cc1nonc1OCCNC(=O)C12CC3CC(CC(C3)C1)C2,-12,1.3,-2,3,2,2.6,nt,nt,nt,-4
O=C1C2CCCCC2C(=O)N1c1ccc(NC2CCCCC2)c([N+](=O)[O-])c1 (stereo not drawn),-6,-0.2,nt,-1,-10,-0.6,-28,-24,-6.5,-4
Cc1ccc(Cl)cc1NC(=O)CC1NC2CCCCC2NC1=O (stereo not drawn),-9,?,-4,-3,-5,2.2,-4,-4,-3.5,12
Cc1ccc(NC(=O)C2CCN(C(=O)c3cccs3)CC2)c(C)c1,-9,-0.5,-3,-3,-6,-0.8,-3,-14,0.2,1
CCOc1ccc2nc(SCC(=O)NCc3ccc(OC)cc3)[nH]c2c1,-3,-0.6,3,-7,-1,1.4,-5,-6,0.2,7
CCOc1ccc(CCNC(=O)CCC(=O)c2cccs2)cc1OCC,nt,-1.2,-3,-6,-2,-1.2,3,5,-0.8,nt
O=C(COC(=O)/C=C/c1ccco1)Nc1ncc(C(F)(F)F)cc1Cl,-13,-0.7,23,-19,-9,-4.3,3,9,-9.0,-4
COc1ccc(NS(=O)(=O)c2cc(NC(=O)c3ccc(=O)[nH]c3)ccc2C)cc1,nt,0.7,1,13,0,-1.4,9,0,1.9,nt
CCOC(=O)C1(Cc2cccc(OC)c2)CCN(Cc2cccn2-c2ccccn2)CC1,-2,-0.1,2,15,2,4.6,5,-5,3.1,5
Cc1cnc(NC(=O)c2ccc(Cl)nc2)s1,-14,-0.6,-5,-14,2,1.1,1,1,-0.7,1
Cc1nnc(NC(=O)C2c3ccccc3Oc3ccccc32)s1,-15,-1.2,-4,1,-5,1.9,nt,nt,nt,3
COCC(=O)N1CCC(Oc2ccc(C(=O)N(C)C(C)c3ccon3)cc2)CC1 (stereo not drawn),-5,-1.2,-1,4,1,-0.7,8,4,0.1,-9
COc1ccc(N2C(=O)c3ccccc3C2O)cc1 (stereo not drawn),-8,-3.2,6,-10,2,10,3,4,0.0,-19
CCC1=NN(C(=O)Cc2ccc(OC)c(OC)c2)C(O)(C(F)(F)F)C1 (stereo not drawn),-2,1.8,1,-1,-14,-2.2,nt,nt,nt,2
Cc1cc2c(SCC(=O)N3CCN(c4ccccc4)CC3)ncnc2s1,-1,1.0,nt,-1,-6,nt,1,5,-1.2,-4
CN(C)S(=O)(=O)c1cccc(NC(=S)NC2CCCCC2)c1,4,0.3,32,-10,-12,0.2,-3,0,0.6,-39
O=C(Cc1ccccc1)NC1CCN(S(=O)(=O)c2cccc(F)c2)CC1,0,-0.9,-1,5,0,-2.3,nt,nt,nt,2
CC1(C(=O)O)CCC(C(=O)NNC(=O)c2ccccc2O)C1(C)C (stereo not drawn),-4,0.2,2,1,-16,0.6,5,-2,0.7,-19
Cc1nnc(SCC(=O)NC2CCCCC2)n(N)c1=O,-7,-0.9,-2,7,2,0.4,1,-5,3.4,1
Cc1ccc2cn[nH]c2c1NC(N)=S,-7,0.7,2,14,-7,3.0,16,8,6.1,10
O=C(COC(=O)c1ccc(Cl)nc1)NC(=O)c1ccccc1,-7,-1.9,0,3,0,-2.3,10,9,0.5,3
COc1cccc2[nH]c3c(N4CCCCC4)ncnc3c12,16,1.3,-32,-2,10,1.1,nt,nt,nt,-23
CN1CCN(c2ccc(NS(=O)(=O)c3ccc(Cl)cc3)cn2)CC1,?,0.5,12,-2,nt,-1.9,7,2,0.0,-3
Cc1csc(SCC(=O)Nc2nc(-c3ccccc3)cs2)n1,1,-0.2,52,3,-10,-1.5,nt,nt,nt,-11
O=C(Cn1ccc2ccccc2c1=O)NCCC(=O)Nc1ccc2c(c1)OCCO2,-16,0.4,-1,-5,-1,0.4,nt,nt,nt,2
Cc1ccc(S(=O)(=O)Nc2ccc(-c3nnc(SCC#N)n3C)cc2)cc1,-9,0.8,1,5,1,-1.6,nt,nt,nt,-2
COc1ccc2cc(C(=O)Nc3c(C)n(C)n(-c4ccccc4)c3=O)sc(=O)c2c1OC,-11,0.9,42,-4,nt,-3.0,nt,nt,nt,3
CCCCOc1ccc(C(=O)N/N=C/c2cn[nH]c2-c2ccc(OC)c(OC)c2)cc1,-6,0.7,-6,-1,-28,-4.7,-6,-1,-2.6,-8
COc1cc(NC(=O)CSc2ncccc2C(=O)OC(C)C)cc(OC)c1,-3,0.7,-1,2,5,1.2,nt,nt,nt,-7
O=C(Nc1ccc(C(F)(F)F)cn1)Nc1cccs1,20,-1.4,-4,-1,2,-4.1,5,7,7.2,-10
CCN(CC)C(=O)CSc1nc(-c2ccc(C)cc2)nc2c1COC(C)(C)C2,15,0.8,-10,-6,1,1.1,nt,nt,nt,-17
COc1ccc(N(CC(=O)NCc2cccnc2)S(=O)(=O)c2ccc(C)c([N+](=O)[O-])c2)cc1,0,-0.6,-10,6,-1,-5.5,11,16,1.9,7
Cc1cnc(C(=O)OCC(=O)c2ccccc2)cn1,-5,?,1,-14,2,-16,-1,7,-1.0,0
CCN(CC(=O)Nc1c(F)cccc1F)C(=O)/C=C/c1ccc2c(c1)OCO2,1,-0.1,-3,-4,1,-0.3,-2,-2,3.9,5
CN1CCN(c2nc3c(c(=O)[nH]c(=O)n3C)n2Cc2ccc(Cl)cc2)CC1,0,-1.0,3,3,9,-5.6,0,3,0.6,9
Cc1ccc(S(=O)(=O)/N=C(\CCl)N2CCOCC2)cc1,-14,-0.6,97*,21,-10,1.6,6,3,-2.7,0
O=C(N/N=C/c1ccc2c(c1)OCO2)c1ccc(NS(=O)(=O)c2cccs2)cc1,-13,-0.2,11,8,-2,-0.2,-18,-14,2.8,-7
CSc1nnc(CSCc2ccc(Cl)cc2Cl)n1-c1ccccc1,1,0.0,-11,-14,-15,3.4,nt,nt,nt,2
CCOC(=O)c1cc(C(C)C)sc1NC(=O)COC(=O)c1nccnc1N,0,-1.1,nt,-5,-6,nt,-6,-3,-1.5,-1
CN(C)c1ccc(/C=C(/C(=O)c2ccc(Cl)cc2Cl)n2cncn2)cc1,39,0.6,nt,-1,2,nt,nt,nt,nt,-2
COC(=O)/C(=C\c1c(OC)cc(OC)cc1OC)C(=O)c1ccc2c(c1)OCO2,-18,1.7,1,-3,-2,2.0,0,4,-3.5,1
COc1ccc(N(C(=O)CNC(=O)c2ccco2)C(C(=O)NCC2CCCO2)c2ccccc2)c(OC)c1 (stereo not drawn),0,-0.4,-15,-2,nt,-3.6,1,3,-1.6,10
CC(=O)c1cccc(NS(=O)(=O)c2ccc3c(c2)oc(=O)n3C)c1,-15,-0.5,12,-18,-1,3.4,nt,nt,nt,0
CCCCCCN[C@H]1CCC2C3CC=C4C[C@@H](O)CC[C@]4(C)C3CC[C@@]21C (stereo partly drawn),nt,0.3,-6,17,8,7.2,nt,nt,nt,nt
CCOC(=O)Cc1csc(NC(=O)CSc2nnc(-c3ccc(NS(=O)(=O)CC)cc3)o2)n1,0,-0.1,98*,19,-5,1.8,nt,nt,nt,85*
Cc1ccc(S(=O)(=O)c2cc3c(=O)n4ccccc4nc3n(Cc3ccco3)c2=N)cc1C,3,-0.6,-3,nt,-35,2.1,nt,nt,nt,-3
COc1ccc2[nH]cc(CCNC(=O)CCC3CCCCC3)c2c1,-6,0.6,31,3,-7,-4.2,-19,-28,-1.6,-13
CNC(=O)C(=O)Nc1cc2c3c(c1)C(C)C(=O)N3CCC2 (stereo not drawn),-8,1.6,-2,1,-5,1.2,9,17,-1.6,17
# Going on with the list.
SMILES,T cruzi repl,Bfl-1 A1 inh,ALR inh,Beta2AR agonist,Beta cell apopt,LANA-H2B inh,rRNA inh HTS,rRNA inh HTS OD600,rRNA inh HTS RFP,Calb FLC
CCCCNS(=O)(=O)c1ccc2nc(SCC(=O)Nc3cccc(F)c3)[nH]c2c1,-2,0.3,29,5,nt,0.6,nt,nt,nt,-4
O=C(CN1C(=O)NC2(CCCCCC2)C1=O)Nc1ccc(Cl)c([N+](=O)[O-])c1,nt,0.9,-7,4,-2,0.0,4,13,3.2,nt
CCN1CCN(S(=O)(=O)c2ccc(Cl)c(C(=O)NC3CC3)c2)CC1,nt,-0.1,2,6,-6,-20,6,12,0.7,nt
CS(=O)(=O)c1ccc(C(=O)NCc2ccc(F)cc2)cc1,-25,0.5,1,-8,-7,-1.5,11,17,0.5,-17
O=C(c1ccccc1C(=O)N1CCN(c2ccccc2)CC1)N1CCN(c2ccccc2)CC1,-10,0.0,nt,4,2,0.8,nt,nt,nt,-3
Cc1ccc(S(=O)(=O)N2CCCC(CCC(=O)NCc3ccccc3F)C2)s1 (stereo not drawn),-1,-0.2,0,3,0,0.1,-26,-38,-4.2,27
COc1ccc(-c2nnc(SCC(=O)NC(C)c3ccccc3)o2)cc1OC (stereo not drawn),-11,0.2,-10,4,1,6.5,nt,nt,nt,1
Cn1c(SCC2CCCO2)nnc1-c1ccncc1 (stereo not drawn),5,0.4,-11,-9,-6,-2.8,nt,nt,nt,-10
COc1ccc(NC(=O)CS(=O)CC(=O)N2CCN(C3CCCC3)CC2)cc1 (stereo not drawn),-2,0.3,-8,-4,2,-1.1,5,7,-0.2,-1
CCc1cc2cccc(C)c2nc1SCC(=O)c1ccc(NC(C)=O)cc1,10,0.7,1,-5,0,-4.2,nt,nt,nt,-10
O=C(N1CCOCCOc2ccccc2OCCOCC1)C(F)(F)F,-6,0.2,nt,-2,-2,2.1,3,3,0.2,7
COc1ccccc1/C=N\NC(=O)c1ccc(COc2ccc(C)c(C)c2)o1,9,0.2,nt,-3,-6,-8.9,10,11,2.2,-6
CCN1CCC(NC(=O)Nc2ccccc2C(=O)OC)CC1,-17,-1.5,-15,5,-1,-2.4,9,10,-0.5,-3
Cc1cc(C)n(-c2ncc(C#N)cn2)n1,3,-2.6,3,-10,0,-4.6,12,13,-2.1,40
Cc1ccc(S(=O)(=O)N(C)C)cc1NC(=O)c1c(-c2c(F)cccc2Cl)noc1C,14,0.1,-23,-7,1,-1.0,-5,-5,2.5,4
O=[N+]([O-])c1cc(Cl)ccc1Oc1ccc(-c2nnco2)cc1,-4,0.3,-2,-1,-11,-0.4,-4,-4,-4.1,19
O=C(Nc1ccc(Cl)c(Cl)c1)Nc1nccs1,10,-1.1,10,17,19,-7.7,-26*,-16*,5.5*,64
Cc1cc(NC(=O)COC(=O)c2ccc([N+](=O)[O-])cc2Cl)no1,nt,-0.5,nt,2,-2,-1.1,-3,4,-3.1,nt
CCOC(=O)N1CCC(N2CCCC(C(=O)c3cc(C)c(OC)c(C)c3)C2)CC1 (stereo not drawn),47,0.5,-17,-2,-1,3.2,nt,nt,nt,-22
CCOc1cc(C(=O)Nc2ccccc2F)cc(Br)c1OCC,18,-0.5,-4,9,10,-1.7,7,10,1.3,7
